# HIV TAR-Tat – HIV-1 TAR-Tat binding disruption | z-score (no concentration beside the values) | 0.6% of 100,000 active | HIV-1 TAR RNA, Tat peptide displacement FRET; hits give high values;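 note: score is relative to mean and SD of negative controls; some compounds called inactive have numbers as strong as hits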
# CDC25B-CDK2 inh – human CDC25B-CDK2/CyclinA binding inhibition; P30305+P24941; HTRF CDC25B-CDK2/CyclinA binding, anti-His/anti-Flag; hits give high values; z-score (test concentration not listed); 0.72% of 94,000 active;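 note: score is relative to mean and SD of negative controls; strong numbers were not always called active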
# Starred values were filed as active, the others as inactive; x = not tested or not shown.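 Rule for the calls: active = z-score from 3 up in half or more of its runs; inactive = the rest.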
# Value order: HIV TAR-Tat	CDC25B-CDK2 inh
Cc1ccc(CNC(=O)c2cnc(N3CCOCC3)nc2C)o1
  1.5	x
Cc1ccc(-c2cc3ncc(C(=O)c4cc(C)ccc4O)cn3n2)cc1
  0.93	0.81
CCn1ncc(C2CC(=O)Nc3c2c(C)nn3-c2nc3ccccc3[nH]2)c1C (stereo not drawn)
  1.5	x
COC(=O)c1cc(OC)c(OC)cc1NC(=O)c1cc(C(C)(C)C)oc1C
  x	-3.1
C[N+]1(C)C2CC(OC(=O)[C@@H](CO)c3ccccc3)CC1C1OC12 (stereo partly drawn)
  -0.13	x
CN1CCN(c2ncnc3c2nc2n3CCCCC2)CC1
  -1.5	x
COc1cc(Br)c(C2CC(=O)Nc3cc(OC)c(OC)cc32)cc1OC (stereo not drawn)
  x	-0.01
Cc1cc2c(cc3c(=O)n(CCCC(=O)N4CC(C)CC(C)C4)nc(C)n32)o1 (stereo not drawn)
  2.4	-0.48
C=CCN(CC=C)CC(O)Cn1c2c(c3ccccc31)CCN(C)C2=O (stereo not drawn)
  x	0.58
CC(C)C[C@H](N)c1nnc(SCc2ccc(Br)cc2)o1
  2.3	-0.99
FC(F)(F)c1ccc(-n2cncn2)nc1
  x	-1.2
CCCc1cc(=O)oc2cc(OC(C)=O)cc(OC(C)=O)c12
  x	-0.04
Cc1cc2n(n1)CCC(=O)N2C(C)C(=O)NCc1cccs1 (stereo not drawn)
  1.1	x
O=C1CC(c2ccccc2OCCc2ccccc2)c2cnn(-c3nc4ccccc4s3)c2N1 (stereo not drawn)
  3.1	x
Cc1nnc(NC(=O)C(=O)c2c[nH]c3ccccc23)s1
  1.4	-1.3
CC1CCCCN1CCCn1cnc2c([nH]c3ccc(Cl)cc32)c1=O (stereo not drawn)
  2	-1.5
Cc1cc(C)cc(NC(=O)CSc2nn3c(=O)c(C)nnc3s2)c1
  1.3	x
O=C(NCC1OCCc2ccccc21)C1OCCc2ccccc21 (stereo not drawn)
  0.52	-1.6
CCCCCCn1c(CN2CCCCC2CC)nc2c1c(=O)n(C)c(=O)n2C (stereo not drawn)
  0.73	1.3
O=C(NCc1ccco1)c1c(O)c2cccc3c2n(c1=O)CC3
  1.6	x

# Continuation:
# Value order: HIV TAR-Tat	CDC25B-CDK2 inh
CN1CCN(C(=O)c2c(-c3ccccc3)c(-c3ccccc3)nn(C)c2=O)CC1
  0.83	-1.4
N#C/C(=C\c1ccccc1N1CCOCC1)S(=O)(=O)c1ccccc1
  x	-1.7
O=C1CCCC2=C1C(c1ccc(F)cc1)Nc1ccc(C(=O)c3ccccc3)cc1N2 (stereo not drawn)
  1.6	-0.59
CC(C)OC(=O)C(C)Oc1ccc2c(=O)c(-c3ccccc3)coc2c1 (stereo not drawn)
  -1.7	-1.4
O=C(CSc1nnc(N2CCOCC2)c2ccccc12)Nc1ccccc1F
  0.65	-1.8
CC(C)C(=O)Nc1ccc(SCc2cc(=O)n3c(ncn3C(C)C)n2)cc1
  -0.72	-2
Cc1ccc(Cl)cc1NC(=O)N1CCn2cccc2C1C (stereo not drawn)
  -3.3	x
O=C(CN1CCSc2ccccc21)NC1CCCC1
  0.94	x
C=CCNC(=O)C(=O)NCC(c1ccc2c(c1)CCCN2C)N1CCCCC1 (stereo not drawn)
  1.5	x
Cc1ccccc1-c1noc(-c2cccs2)n1
  -0.25	-0.81
COC(=O)Cn1cc(S(=O)(=O)N2CCCC2)cc1C(=O)OC
  1.2	x
O=C(CSCc1cc(=O)n2nc(C3CC3)sc2n1)Nc1ccccc1Cl
  -1.4	x
Cc1nnsc1C(=O)NNS(=O)(=O)c1cccs1
  x	-0.84
CC1(C)CC(n2c(SCCc3ccccc3)nc3ccccc3c2=O)CCO1 (stereo not drawn)
  x	-0.49
CCCN(CCC)CCNS(=O)(=O)c1cccc2cccnc12
  x	0.23
CCOC(=O)c1c(C)oc2nc(C)nc(Nc3cccc(SC)c3)c12
  -1.4	x
COc1ccc(Cl)cc1S(=O)(=O)Nc1ccc2c(c1)n(C)c(=O)n2C
  -0.12	-1.7
Cc1ccc(C2=NN(C(=O)c3ccncc3)C(O)(C(F)(F)F)C2)cc1 (stereo not drawn)
  x	-1.9
COc1ccc(S(=O)(=O)NCCc2nnc3ccc(SCc4cccc(F)c4)nn23)cc1
  1.8	x
O=C(CC(=O)N1CCCC1)N1CCCC1
  x	-0.98

# A different layout for part of the listing above:
Cc1nnsc1C(=O)NNS(=O)(=O)c1cccs1
  HIV TAR-Tat: x
  CDC25B-CDK2 inh: -0.84
CC1(C)CC(n2c(SCCc3ccccc3)nc3ccccc3c2=O)CCO1 (stereo not drawn)
  HIV TAR-Tat: x
  CDC25B-CDK2 inh: -0.49
CCCN(CCC)CCNS(=O)(=O)c1cccc2cccnc12
  HIV TAR-Tat: x
  CDC25B-CDK2 inh: 0.23
CCOC(=O)c1c(C)oc2nc(C)nc(Nc3cccc(SC)c3)c12
  HIV TAR-Tat: -1.4
  CDC25B-CDK2 inh: x

# (list continues)
# Value order: HIV TAR-Tat	CDC25B-CDK2 inh
Cc1cc2n(n1)C(c1ccc(O)cc1)Nc1c(C)cccc1-2 (stereo not drawn)
  0.11	0.11
CCOC(=O)c1c(N)sc(-c2ccccc2)c1C
  1.9	0.24
CCOc1ccc(N(C)S(=O)(=O)c2cc3[nH]c4c(c3cc2C)C(=O)CC(C)(C)C4)cc1
  -1.3	x
Cn1c(=O)n(C)c2cc(C(O)COc3ccc(CNCc4ccc5c(c4)OCO5)cc3)ccc21 (stereo not drawn)
  1.4	-1.8
CCOc1ccc(OCCSc2nc(C)cc(=O)[nH]2)cc1
  0.53	-0.86
Cc1ccc(C)c(N2CCN(S(=O)(=O)c3cc(-c4csc(C)n4)ccc3C)CC2)c1
  0.83	x
Cc1ccc2[nH]c3c(c2c1)CCCC3CN (stereo not drawn)
  1.6	-0.02
CCCSc1nnc2c(n1)OC(c1ccc(I)o1)Nc1ccccc1-2 (stereo not drawn)
  x	-1.5
COc1ccc2nc(C)c(C(=O)OCCN(C)C)cc2c1
  1	-0.02
CCn1c(C(=O)O)cc2oc3ccccc3c21
  1.3	-1.3
COc1ccc(C2C(C(=O)OC3CCCC3)=C(C)NC3=C2C(=O)CCC3)cc1OC (stereo not drawn)
  2.2	-1.6
Cn1cccc1-c1cc2n(n1)CCCN2C(=O)Nc1ccc(Br)cc1
  3.2	x
O=C(CSc1ncnc2c1sc1cccc(F)c12)N1CCN(C(=O)c2ccco2)CC1
  0.04	x
CN1C(=O)C(C)(C)c2cc(S(=O)(=O)NCCCN3CCCCC3)ccc21
  0.48	x
Cc1ccc(S(=O)(=O)N(CC(=O)Nc2cccnc2)c2ccccc2F)cc1
  x	-2
NC1=NC(=O)CC(C(=O)Nc2ccccc2)S1 (stereo not drawn)
  x	-0.51
Cc1ccc(CN2C(=O)C3C(c4ccc(Cl)cc4)OC4(C(=O)c5ccccc5C4=O)C3C2=O)cc1 (stereo not drawn)
  -1.3	-0.45
CCc1cc2c(cc3n2CC(C)(C(=O)NC2CCC(C)CC2)N(Cc2ccco2)C3=O)s1 (stereo not drawn)
  0.62	-2.5
O=C(CCCn1c(=O)c2cccn2c2ccc(F)cc21)NCc1cccs1
  1.9	x
Cc1ccc2c(c1)sc1ncc(NC(=O)c3ccc(Cl)cc3)c(=O)n12
  0.23	-1.2

# Remaining list, next part
# Value order: HIV TAR-Tat	CDC25B-CDK2 inh
CC(=O)N1N=C(c2c(-c3ccccc3)c3cc(Cl)ccc3[nH]c2=O)CC1c1ccccc1Cl (stereo not drawn)
  1.1	x
Cc1cc(-n2ccnc(NCc3cccs3)c2=O)ccc1Br
  -2.4	x
CCOC(=O)c1nc(NCCN2CCCc3ccccc32)c2ccccc2n1
  1.3	x
CC(C)CNc1nc(N)c([N+](=O)[O-])c(Nc2cccc(F)c2)n1
  1.1	x
O=C1CN(c2ccccc2F)C(=O)CN1/N=C/c1cccs1
  x	-1.8
CC12CN3CC(c4ccccc4)(CN(C1)C3c1ccccc1O)C2=O (stereo not drawn)
  -1.3	-0.68
CCOc1ccc2nc(NC(=O)c3cc(=O)c4c(C)cc(C)cc4o3)sc2c1
  2.6	-0.77
COCCCn1c(=O)c(C#N)cc2c(=O)n3cccc(C)c3nc21
  1.4	1.4
O=C(O)Cn1c(=O)oc2ccc(C(=O)N3CCCCC3)cc21
  1.6	x
COc1cccc(Nc2c(S(=O)(=O)c3ccccc3)cnc3ccccc23)c1
  -1.2	-0.55
CCOc1c(Cl)cc(CNc2ncn[nH]2)cc1OC
  -0.89	-0.46
Cc1onc(-c2ccccc2Cl)c1C(=O)N1C=Cc2ccccc2C1C#N (stereo not drawn)
  x	-0.07
CN(C(=O)C1=Cc2cc(Br)ccc2OC=C1)c1ccccc1
  -0.65	-0.27
Cn1c(=O)c2c(-c3cccc(Br)c3)n(CCO)cc2n(C)c1=O
  0.21	0.13
CCCSc1nc2c(c(=O)[nH]1)C(c1ccc(O)c(OCC)c1)CC(=O)N2 (stereo not drawn)
  2.4	-2.2
CCC(SC1=NS(=O)(=O)c2ccccc2N1)C(=O)OC (stereo not drawn)
  0.94	x
COC(=O)c1ccc(C2CC(=O)Nc3cc4c(cc32)OCO4)cc1 (stereo not drawn)
  x	-2.1
CN(C)c1ccc(CNc2nc(-c3ccco3)nn2S(=O)(=O)c2ccc3ccccc3c2)cc1
  -0.41	1
Cc1nc(C(F)(F)F)[nH]c(=O)c1C
  x	-0.7
CCN1CCN(c2c(S(=O)(=O)c3ccccc3)cnc3ccc(C)cc23)CC1
  0.74	-0.51

# (cont.)
# Value order: HIV TAR-Tat	CDC25B-CDK2 inh
O=S(=O)(NCCn1c(-c2ccccc2)nc2cccnc21)c1cccc2nsnc12
  -0.11	x
O=C(O)CCCCCNS(=O)(=O)c1ccc(F)cc1
  1	-0.01
O=C(O)c1cccc(Nc2nc(-c3ccccc3)c3cc(Br)ccc3n2)c1
  x	-1.2
Cc1ccc(Cn2cc3c(=O)[nH]nc-3c3ccccc32)cc1
  1.6	-0.8
O=c1c(S(=O)(=O)c2cc(F)cc(F)c2)c[nH]c2cc(Cl)c(F)cc12
  -0.35	-3.2
O=C(c1ccc(CS(=O)c2ccc(Br)cc2)o1)N1CCN(c2ccccn2)CC1 (stereo not drawn)
  0.76	-1.2
O=S(=O)(NC1c2cccc3cccc(c23)C1N1CCN(CCO)CC1)c1ccccc1 (stereo not drawn)
  0.04	-1.1
Cc1nc2ccccc2n1Cc1nnc2n1N=C(c1ccc(Cl)cc1)CS2
  1.9	x
COc1ccc(-c2nc(CNS(=O)(=O)c3ccc(Br)cc3)cs2)cc1
  0.46	-3.4
CCOC(=O)c1c[nH]c2c(ccc3ccccc32)c1=O
  x	-0.35
CCOCCc1nnc(NC(=O)C(=O)c2cc(C)n(-c3ccc(F)cc3)c2C)s1
  1.8	-1.4
Fc1ccc(C2Nc3c(Cl)cccc3C3C=CCC32)cc1 (stereo not drawn)
  -4.7	-1.4
COc1ccc(C2c3c(-c4ccccc4O)n[nH]c3C(=O)N2Cc2cccnc2)cc1OC (stereo not drawn)
  -0.33	-0.99
COc1cc(Cl)c(Cl)cc1Cl
  x	6
CC(=O)c1c(C)nn(-c2ccccc2)c1-c1ccccc1[N+](=O)[O-]
  x	-0.98
CCNc1cc(N2CCN(CCOc3ccc(O)cc3)CC2)c2noc3c2c1C(=O)c1ccccc1-3
  2.8	3.9
Cc1ccc(CNS(=O)(=O)c2ccc3c(c2)NC(=O)C(C)CS3)o1 (stereo not drawn)
  -0.3	x
COc1cccc2c1OC(c1ccncc1)N1N=C(c3cc(Cl)ccc3O)CC21 (stereo not drawn)
  -2.6	1.8
Cn1nc(-c2ccccc2F)c2cc(C(=O)NC3CC3)sc21
  x	-1.6
CCOCCCN(Cc1ccco1)C(=O)Cn1c(=O)oc2ccccc21
  1.2	x

# One compound at a time, as listed above.
# `COc1cc(Cl)c(Cl)cc1Cl` in the list: HIV TAR-Tat: x; CDC25B-CDK2 inh: 6
# `CCOCCc1nnc(NC(=O)C(=O)c2cc(C)n(-c3ccc(F)cc3)c2C)s1` in the list: HIV TAR-Tat: 1.8; CDC25B-CDK2 inh: -1.4
# `CC(=O)c1c(C)nn(-c2ccccc2)c1-c1ccccc1[N+](=O)[O-]` in the list: HIV TAR-Tat: x; CDC25B-CDK2 inh: -0.98

# Other results:
# Value order: HIV TAR-Tat	CDC25B-CDK2 inh
Cn1c(CN2C(=O)CSc3ccc(C(F)(F)F)cc32)nnc1SCC(=O)c1ccccc1
  x	-1.6
COc1ccc(S(=O)(=O)Nc2ccc3c(c2)N(S(C)(=O)=O)CCC3)cc1F
  0.37	x
c1ccc(CN2CCN(Cc3c[nH]c4ccccc34)CC2)cc1
  0.17	-0.3
CS(=O)(=O)c1ccc2nc(NC(=O)c3ccc(S(=O)(=O)N4CCOCC4)cc3)sc2c1
  x	-1.9
O=C(NCc1ccco1)C(=O)NCC(c1cccs1)S(=O)(=O)c1ccccc1 (stereo not drawn)
  0.96	x
Cc1ncc(C(=O)O)c2ccccc12
  1.8	-1.5
CN(C)CCCc1cc(C(=O)Nc2ccc(-c3ccncc3)cc2)ccc1O
  x	-3.6
Cn1c(=O)oc2cc(S(=O)(=O)NCc3ccc4c(c3)N(C(=O)c3ccccc3)CC4)ccc21
  6.8	x
O=C(NCCN1CCCC1)C1CCCN(c2nc3cccnc3s2)C1 (stereo not drawn)
  -1.9	x
COCCn1c(C2CC(=O)N(c3cc(OC)ccc3OC)C2)nc2ccccc21 (stereo not drawn)
  1.2	-1.2
Cc1ccc(S(=O)(=O)[C@H]2CS(=O)(=O)C[C@@H]2N2C[C@H](C)C[C@H](C)C2)cc1
  0.92	-1.1
CC(C)OCCCNc1ncnc2c1cnn2-c1cccc(Cl)c1
  2.6	x
COc1ccc(-c2ccnc3[nH]c(C(=O)O)cc23)cc1
  1.4	0.64
CC(C)NC(=O)N1CCN(c2nc3cc(F)ccc3n3cccc23)CC1
  0.84	x

# Assay outcomes from PubChem.
